Vif TR-FRET: inhibitors of Vif binding to APOBEC3G peptide, primary screen, biochemical, TR-FRET, GST-Vif 1-94, biotin-A3G peptide, dose response retest (AID 1117319) | 260,000 tested, 0.57% active | inhibition, %, or IC50 in µM where a hit was titrated | TR-FRET GST-Vif / biotin-A3G peptide binding; higher % means a stronger effect; test concentration not given here; strong numbers were not always called active;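 active means above the screen mean plus three standard deviations and confirmed in dose response; inconclusive means results disagree or hit not tested in dose response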;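 further: Vif residues 1-94 fused to GST binding biotinylated APOBEC3G peptide 110-148; 0% = full assay without inhibitor and 100% = GST in place of GST-Vif; retest series ran down from 100 µM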
Calb FLC: C. albicans growth modulation with fluconazole. C. albicans CaCi-2 (fluconazole-resistant clinical isolate) + fluconazole, Alamar Blue growth, 48 h. growth inhibition, % (concentration not given with the values). 300,000 tested, 0.57% active. AID 1979;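 active means most replicates above 75%; inconclusive means exactly half above 75%; inactive means most below 75%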;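 further: all wells also contain fluconazole at 8 µg/ml as a sub-toxic cotreatment; 0% = median of DMSO wells and 100% = median of geldanamycin control wells; wells of about 8 µL received 7.5 nL stock; the first replicate is given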
A1 inh: inhibitors of the anti-apoptotic protein A1, read as caspase activation; MEF A1-2A-BIM cells, Caspase-Glo 3/7 luminescence, 3 h; percent of clofoctol response, vehicle zero; caspase activation, % (concentration not given with the values); 330,000 tested, 0.066% active;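 active means over half of replicate activation scores above 10%, or exactly half above 10 with the replicate mean above 10; inconclusive means replicate mean below 10 yet half the replicates above 10; inactive means over half of replicates below 10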;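 further: wells of about 30 µL received 50 nL stock; many hits fall short of the cut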
RanGTP-Imp inh: inhibitors of RanGTP-importin-beta interaction, primary screen, biochemical, FRET, CFP-Ran, YFP-importin-beta, homogeneous; cell-free CFP-Ran/YFP-importin-beta FRET ratio; inhibition, % (concentration not given with the values); 300,000 tested, 1.1% active; AID 2216;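 active means most replicates above 15%; inconclusive means exactly half above 15%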;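 further: 0% = DMSO wells and 100% = Ran loaded with GDP instead of GTP; wells of about 40 µL received 100 nL stock; the first replicate is given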
MLL AF4-AF9 inh: inhibitors of human MLL-AF4/AF9 interaction. P42568. AID 651704. inhibition, % at 10 µM. AlphaScreen, biotin-AF4 peptide binding to FLAG-AF9. 350,000 tested, 0.47% active;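 active means every replicate reaching a set inhibition limit, whatever the replicate mean, cut at about 25% in these data; inconclusive means mean inhibition reaches that limit but some replicates miss it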;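 further: 0% = plate neutral control median and 100% = total signal loss; the record names both 10 and 1 µM as test concentration; the first replicate is given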
Target sequence (P42568 whole entry, looked up): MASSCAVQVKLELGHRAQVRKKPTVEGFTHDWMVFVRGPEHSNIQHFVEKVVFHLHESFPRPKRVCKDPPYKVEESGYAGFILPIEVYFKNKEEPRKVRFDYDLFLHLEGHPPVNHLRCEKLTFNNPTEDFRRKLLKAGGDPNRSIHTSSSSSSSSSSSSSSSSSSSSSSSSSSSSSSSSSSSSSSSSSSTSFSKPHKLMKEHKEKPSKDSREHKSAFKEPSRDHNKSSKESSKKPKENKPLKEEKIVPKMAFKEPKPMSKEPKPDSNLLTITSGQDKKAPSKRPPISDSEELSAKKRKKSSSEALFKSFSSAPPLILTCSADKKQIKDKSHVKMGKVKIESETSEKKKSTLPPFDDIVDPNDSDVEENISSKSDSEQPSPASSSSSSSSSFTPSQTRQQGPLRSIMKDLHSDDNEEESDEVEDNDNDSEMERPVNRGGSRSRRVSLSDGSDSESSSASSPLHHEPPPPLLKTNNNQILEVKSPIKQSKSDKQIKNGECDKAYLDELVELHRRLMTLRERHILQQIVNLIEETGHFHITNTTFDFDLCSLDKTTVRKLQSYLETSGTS
LANA-H2A inh: blocks KSHV LANA binding to histone H2A/H2B; Q9QR71; cell-free LANA-H2A/H2B peptide, fluorescence polarization; inhibition, % (no concentration beside the values); 320,000 tested, 0.6% active; in the data active means inhibition mostly above about 10%, no sharp cut-off; inactive means mostly below about 6.7%;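 further: stock transfer was 7.5 nL into about 10 µL; 0% = median of vehicle wells and 100% = median of positive control wells; one replicate is shown; the record names a cut of 25% in any replicate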
Beta apoptosis: beta cell apoptosis inhibition; protection from apoptosis, % (concentration not given with the values); 300,000 tested, 0.8% active; INS-1E cytokine-induced death, ATP luminescence, 48 h; percent of positive-control rescue, neutral wells zero;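 active means all replicates at 75% or more, or half of them and the mean; inconclusive means half reach 75% but not the mean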;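 further: 0% = cytokine-treated negative control wells and 100% = positive control rescue; higher means more ATP so stronger rescue from cytokine killing; wells of about 40 µL received 100 nL stock; the first replicate is given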
T cruzi repl: T. cruzi replication inhibition; T. cruzi beta-gal in NIH3T3, luminescence, 90 h; inhibition, % (concentration not given with the values); 300,000 tested, 1.4% active; AID 1885;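 active means mean inhibition across valid replicates above about 55%, limit read from the data; inconclusive means mean below that limit but half or more replicates reach it; inactive means mean below it, under half of replicates reach it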;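 further: signal also drops with host cell toxicity which is not excluded here; 0% = plate median of DMSO wells and 100% = zero luminescence signal; higher percent means less beta-gal luminescence so fewer parasites; stock transfer was 50 nL into about 50 µL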
Starred values were filed as active, the others as inactive.

The first two entries, to show the layout:
What do the screens show for `COc1ccc(CCC(C)NCc2ccc(F)cc2)cc1` (stereo not given)?
Vif TR-FRET: -6%; Calb FLC: -2; A1 inh: 0.9; RanGTP-Imp inh: 4.5; MLL AF4-AF9 inh: -1.3; LANA-H2A inh: -1.9; Beta apoptosis: -3; T cruzi repl: -6

Results for CCc1ccc2[nH]c(C(=O)Nc3ccc4c(c3)OCO4)cc2c1 ?
Vif TR-FRET: -4%; Calb FLC: -1; A1 inh: -0.7; RanGTP-Imp inh: -0.9; MLL AF4-AF9 inh: inconclusive; LANA-H2A inh: -2.5; Beta apoptosis: 13; T cruzi repl: 13

The listing, repeating the preview:
What do the screens show for `COc1ccc(CCC(C)NCc2ccc(F)cc2)cc1` (stereo not given)?
Vif TR-FRET: -6%; Calb FLC: -2; A1 inh: 0.9; RanGTP-Imp inh: 4.5; MLL AF4-AF9 inh: -1.3; LANA-H2A inh: -1.9; Beta apoptosis: -3; T cruzi repl: -6

Results for CCc1ccc2[nH]c(C(=O)Nc3ccc4c(c3)OCO4)cc2c1 ?
Vif TR-FRET: -4%; Calb FLC: -1; A1 inh: -0.7; RanGTP-Imp inh: -0.9; MLL AF4-AF9 inh: inconclusive; LANA-H2A inh: -2.5; Beta apoptosis: 13; T cruzi repl: 13

How did CC(C)(C)C(=O)Nc1ccc(-c2cn3ccsc3n2)cc1 do in these assays?
Vif TR-FRET: 1%; Calb FLC: 0; A1 inh: -8.1; RanGTP-Imp inh: 2.7; LANA-H2A inh: 2.3; T cruzi repl: 7

Results for CN(CC(=O)Nc1ccccn1)S(=O)(=O)c1ccc(Cl)cc1 ?
Vif TR-FRET: -1%; Calb FLC: -2; A1 inh: -0.1; RanGTP-Imp inh: -1.5; LANA-H2A inh: 1.8; Beta apoptosis: -10; T cruzi repl: -8

Results for O=C(Nc1ccon1)c1cccc(S(=O)(=O)N2CCCCCC2)c1 ?
Vif TR-FRET: -7%; Calb FLC: 1; A1 inh: -0.3; RanGTP-Imp inh: 4.3; LANA-H2A inh: 4.4; Beta apoptosis: 0; T cruzi repl: 6

How did CCCS(=O)(=O)N1CCN(CC2CC=CCC2)CC1 (stereo not given) do in these assays?
Vif TR-FRET: -5%; Calb FLC: -6; A1 inh: -1.0; RanGTP-Imp inh: 6.3; LANA-H2A inh: -4.3; Beta apoptosis: -5; T cruzi repl: -14

How did COc1ccc(S(=O)(=O)N2CCCCC2)cc1NC(=O)c1ccc2c(c1)OCO2 do in these assays?
Vif TR-FRET: -2%; Calb FLC: -7; A1 inh: 1.1; RanGTP-Imp inh: 2.2; LANA-H2A inh: 1.9; Beta apoptosis: -3; T cruzi repl: 6

How did O=c1[nH]c(=O)n(Cc2ccco2)c2c1C(C(F)(F)F)(C(F)(F)F)N=C(C1CCCCC1)N2 do in these assays?
Vif TR-FRET: -13%; Calb FLC: -6; A1 inh: 0.4; RanGTP-Imp inh: 5.4; LANA-H2A inh: -4.8; Beta apoptosis: 7; T cruzi repl: 4

What do the screens show for `CCCn1c(SCc2cc(=O)[nH]c3ccccc23)nc2c1c(=O)n(C)c(=O)n2C`?
Vif TR-FRET: -4%; Calb FLC: 0; A1 inh: 0.9; RanGTP-Imp inh: 3.6; LANA-H2A inh: -2.6; T cruzi repl: -7

How did O=C(Nc1ccc2c(c1)OCO2)N1CCN(c2ccccc2)CC1 do in these assays?
Vif TR-FRET: 4%; Calb FLC: -20; A1 inh: -0.6; RanGTP-Imp inh: 2.4; MLL AF4-AF9 inh: 0.7; LANA-H2A inh: -0.2; Beta apoptosis: -2; T cruzi repl: -16

What do the screens show for `O=C(CCNC(=O)c1ccc(Br)cc1)NCCCN1CCCC1=O`?
Vif TR-FRET: -4%; A1 inh: 1.3; MLL AF4-AF9 inh: 0.1; LANA-H2A inh: -42; Beta apoptosis: -5

Results for COc1ccc(CCNC(=O)CCNC(=O)N2CC(=O)Nc3ccccc32)cc1 ?
Calb FLC: -1; A1 inh: -0.1; RanGTP-Imp inh: -2.8; MLL AF4-AF9 inh: -0.4; LANA-H2A inh: 10; Beta apoptosis: 2; T cruzi repl: -6

How did Cc1ccc(S(=O)(=O)N2CCC(C(=O)N3CCC[C@H]3C(=O)NC3CCS(=O)(=O)C3)CC2)cc1 (stereo not given in full) do in these assays?
Vif TR-FRET: 4%; Calb FLC: 15; A1 inh: 0.3; RanGTP-Imp inh: 1.1; LANA-H2A inh: 2.3; Beta apoptosis: -4; T cruzi repl: -5

Results for CCOC(=O)c1cnc2cc3c(cn2c1=O)CCCC3 ?
Vif TR-FRET: 6%; Calb FLC: 9; A1 inh: -0.1; RanGTP-Imp inh: 1.4; LANA-H2A inh: -0.5; Beta apoptosis: 3; T cruzi repl: -6

Results for CCc1cccc(CC)c1NC(=S)NCc1nc2ccccc2[nH]1 ?
Vif TR-FRET: 13%; Calb FLC: 5; A1 inh: 0.0; RanGTP-Imp inh: 6.1; MLL AF4-AF9 inh: 0.6; LANA-H2A inh: -1.6; Beta apoptosis: 1; T cruzi repl: 1

What do the screens show for `Cn1c(N)c(C(=O)COC(=O)c2cc3ccccc3cc2O)c(=O)n(C)c1=O`?
Vif TR-FRET: -11%; A1 inh: -0.2; MLL AF4-AF9 inh: 0.7; LANA-H2A inh: 1.3; Beta apoptosis: -2

Results for CCn1c(C)[n+](Cc2ccccc2)c2ccc(C(=O)OC)cc21 ?
Calb FLC: -11; A1 inh: -0.1; RanGTP-Imp inh: -7.0; MLL AF4-AF9 inh: -2.3; LANA-H2A inh: -0.1; Beta apoptosis: -6; T cruzi repl: -4

Results for CN(C)c1c([N+](=O)[O-])cc2[nH]c(=O)[nH]c2c1[N+](=O)[O-] ?
Vif TR-FRET: inconclusive; Calb FLC: 5; A1 inh: -0.8; RanGTP-Imp inh: 0.3; LANA-H2A inh: 0.8; Beta apoptosis: -2; T cruzi repl: 25

Results for Cc1cc(Br)c(OCc2ccc(C(=O)N/N=C3\CC(=O)CC(C)(C)C3)cc2)c(Br)c1 ?
Calb FLC: 57; A1 inh: 0.0; RanGTP-Imp inh: 2.9; MLL AF4-AF9 inh: 17; LANA-H2A inh: 3.8; Beta apoptosis: 13; T cruzi repl: 3

How did Cc1ccsc1/C=N/NC(=O)c1ccccn1 do in these assays?
Vif TR-FRET: 3%; Calb FLC: 1; A1 inh: -7.6; RanGTP-Imp inh: -1.2; LANA-H2A inh: 3.0; Beta apoptosis: 10; T cruzi repl: -9

How did CC1CN(C(=O)CCC(=O)NCCCN2CCC(Cc3ccccc3)CC2)c2cc(Cl)ccc2O1 (stereo not given) do in these assays?
Calb FLC: 14; A1 inh: -0.8; RanGTP-Imp inh: -3.0; MLL AF4-AF9 inh: 11; LANA-H2A inh: 0.2; Beta apoptosis: 16; T cruzi repl: 13

How did CCCCSC1(SCCCC)N=C(N)C2(C#N)C(c3ccccc3)NC(C)=C(C)C12C#N (stereo not given) do in these assays?
Vif TR-FRET: -1%; Calb FLC: 4; A1 inh: 1.0; RanGTP-Imp inh: -0.8; LANA-H2A inh: 2.9; Beta apoptosis: -8; T cruzi repl: -7

How did O=C(N/N=C\c1cc2c(cc1Cl)OCO2)c1cccnc1 do in these assays?
Vif TR-FRET: -1%; Calb FLC: 2; A1 inh: 0.2; RanGTP-Imp inh: 0.8; MLL AF4-AF9 inh: -0.5; LANA-H2A inh: 2.8; Beta apoptosis: -2; T cruzi repl: -1

How did O=C(NCSC1=NCCS1)c1ccccc1 do in these assays?
Vif TR-FRET: 8%; Calb FLC: -4; A1 inh: 0.4; RanGTP-Imp inh: -0.2; LANA-H2A inh: -1.6; Beta apoptosis: 1; T cruzi repl: 2

What do the screens show for `O=C(NCc1ccccc1CN1CCCCC1)c1ccccc1N1CCCC1=O`?
Vif TR-FRET: 3%; A1 inh: 0.1; MLL AF4-AF9 inh: -0.2; Beta apoptosis: -3

Results for CC1CN(S(=O)(=O)c2cc(C(=O)NCCCN3CCCC3=O)ccc2Cl)CC(C)O1 (stereo not given) ?
A1 inh: -1.2; MLL AF4-AF9 inh: -1.3; LANA-H2A inh: 4.0; Beta apoptosis: 0

What do the screens show for `CC(C)Cc1nnc(NC(=O)CCC(=O)Nc2ccc3cn[nH]c3c2)s1`?
Vif TR-FRET: -10%; Calb FLC: 1; A1 inh: 0.7; RanGTP-Imp inh: 0.6; LANA-H2A inh: 4.7; Beta apoptosis: -5; T cruzi repl: -7

What do the screens show for `CN1CCCN(C2C3CC4CC(C3)CC2C4)CC1` (stereo not given)?
Vif TR-FRET: 19%; Calb FLC: -4; A1 inh: 0.3; RanGTP-Imp inh: -3.3; LANA-H2A inh: -4.3; Beta apoptosis: -4; T cruzi repl: 14

What do the screens show for `Cc1nc(-n2nnc3ccccc32)c2c3c(sc2n1)CCCC3`?
Vif TR-FRET: -2%; Calb FLC: inconclusive; A1 inh: 0.0; RanGTP-Imp inh: 3.8; LANA-H2A inh: -2.2; Beta apoptosis: 4; T cruzi repl: 0

How did CCCCCCn1nc(C(=O)OCC(=O)c2c(N)n(C)c(=O)n(C)c2=O)c2ccccc2c1=O do in these assays?
Vif TR-FRET: -2%; Calb FLC: -2; A1 inh: 0.9; RanGTP-Imp inh: -5.0; MLL AF4-AF9 inh: 1.6; LANA-H2A inh: 1.4; Beta apoptosis: 13; T cruzi repl: 26

Results for Cc1sc(NC(=O)c2ccco2)c(C(c2ccccc2)N2CCC(C)CC2)c1C (stereo not given) ?
Vif TR-FRET: -2%; Calb FLC: 23; A1 inh: 0.4; RanGTP-Imp inh: 2.0; MLL AF4-AF9 inh: -8.8; LANA-H2A inh: -2.9; Beta apoptosis: 0; T cruzi repl: 72*

How did Cc1nc(N)c(C#N)c(-c2ccccc2)c1C do in these assays?
Vif TR-FRET: -1%; Calb FLC: -6; A1 inh: 0.9; RanGTP-Imp inh: 1.7; LANA-H2A inh: 3.9; T cruzi repl: 2

Results for COc1cc(/C=N/N2CCN(c3ccccc3OC)CC2)ccc1O ?
Vif TR-FRET: 2%; Calb FLC: 34; A1 inh: 0.4; RanGTP-Imp inh: -3.7; LANA-H2A inh: 1.5; Beta apoptosis: 1; T cruzi repl: -3

How did COCCn1c(C)cc(/C=C2/SC(=O)N(C(C)C(=O)OC)C2=O)c1C (stereo not given) do in these assays?
Vif TR-FRET: 9%; Calb FLC: 8; A1 inh: -1.5; RanGTP-Imp inh: 0.3; MLL AF4-AF9 inh: 11; LANA-H2A inh: -4.6; Beta apoptosis: -4; T cruzi repl: 7

Results for Cn1c(CNC(=O)CNC(=O)c2cccc(Cl)c2)cc(=O)n(C)c1=O ?
Calb FLC: 7; A1 inh: -0.2; RanGTP-Imp inh: 3.0; MLL AF4-AF9 inh: 0.9; LANA-H2A inh: 0.2; Beta apoptosis: 2; T cruzi repl: -2

How did O=C(Nc1cccc(F)c1)c1ccc2c(c1)OCCO2 do in these assays?
Calb FLC: 5; A1 inh: -0.7; RanGTP-Imp inh: 1.2; MLL AF4-AF9 inh: 0.6; LANA-H2A inh: -2.6; Beta apoptosis: 5; T cruzi repl: 14

Assay outcomes (PubChem BioAssay)

Rows are unselected. Share with any hit: about 4.3%.
